Screening results from PubChem BioAssay.
Six1-Eya2 inh = inhibitors of human Six1/Eya2 interaction. Q15475+O00167. AlphaScreen GST-Six1/His-Eya2 binding, biochemical; active compounds read low; control for the full effect not named in the record. activity change, % (no concentration beside the values). 360,000 compounds, 0.56% hits; in the data active = activity change below about -65%; inconclusive = about -30% to -65%; inactive = above about -30%; note: % is set by controls: 0 for no effect and ±100 for the full control effect
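AlphaScreen luminescence read after one hour at 37 °C in darkness. Pin-transferred compounds met GST-Six1 and His-Eya2 protein (5X stock 250 nM/500 nM) plus glutathione donor and Ni-chelate acceptor beads (5X, 50 ug/mL).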
TRPML1 blocker = blocks the human TRPML1 channel | activity change, negative = inhibition, % (test concentration not listed) | Q9GZU1 | TRPML1-inducible cells, Ca2+ dye fluorescence, FDSS; active compounds read low; inhibition of EC80 agonist-evoked calcium signal | AID 624415 | 390,000 compounds, 0.02% hits; in the data active means activity change below about -50%; inconclusive means about -30% to -50%; inactive means above about -30%;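 note: stimulus is agonist 54-4 at its EC80 concentration; % is set by controls: 0 for no effect and ±100 for the full control effect; compound concentration not given in the record; the text of the record puts the active cut at -80%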
Target sequence (Q9GZU1 whole entry, looked up): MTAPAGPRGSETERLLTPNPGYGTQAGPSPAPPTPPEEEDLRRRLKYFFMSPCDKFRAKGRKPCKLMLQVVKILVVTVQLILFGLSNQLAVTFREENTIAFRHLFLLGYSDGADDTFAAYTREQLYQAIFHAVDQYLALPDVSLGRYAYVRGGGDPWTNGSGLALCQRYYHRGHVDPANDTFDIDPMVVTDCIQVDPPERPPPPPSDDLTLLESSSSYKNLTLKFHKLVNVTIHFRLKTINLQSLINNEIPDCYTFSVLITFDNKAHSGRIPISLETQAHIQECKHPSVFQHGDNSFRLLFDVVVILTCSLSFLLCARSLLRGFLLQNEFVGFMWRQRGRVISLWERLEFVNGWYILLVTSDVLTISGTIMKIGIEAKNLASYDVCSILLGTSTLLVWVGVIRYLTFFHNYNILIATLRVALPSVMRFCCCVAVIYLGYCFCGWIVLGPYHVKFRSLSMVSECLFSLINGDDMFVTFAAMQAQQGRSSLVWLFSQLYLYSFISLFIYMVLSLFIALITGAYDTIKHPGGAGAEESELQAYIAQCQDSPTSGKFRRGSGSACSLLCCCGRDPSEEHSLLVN
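Calcium fluorescence in TRPML1-DL cells induced overnight with Tet: a 110 s read after compound pin addition, then a 110 s antagonist read after challenge with 54-4 at 4 uM final (EC80).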
PINK1 expr mod = changes PINK1 expression; PINK1 immunofluorescence, high-content cytometry, 24 h; Potency, µM (top dose mostly 76.6 µM), without a hit: at the highest dose activation (PINK1 increase), actives largely listed as activators; 410,000 compounds, 0.2% hits; active = well fitted activation curve with a large enough effect; inconclusive = small, poorly fitted or top-dose-only effect; inactive = flat fitted curve, though single readings scatter; cell line not stated here;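 note: potency is the fitted concentration of half-maximal effect; % of control where 0% means no effect; nearly all actives have a fitted effect of over 65% in size; a mitochondrial uncoupler was the plate control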
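Cells are seeded, rested 12 hours, then given compound at five concentrations or DMSO for 24 hours. After fixation, blocking and antibody staining, PINK1 amount and mitochondrial localization are scored; CCCP serves as control.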
TRPML1 ag = human mucolipin-1 channel agonism; Q9GZU1; TRPML1-expressing cells, Ca2+ dye fluorescence, FDSS; host cell line not named in the record; reference of the full effect not given here; activation, % (test concentration not listed); 410,000 compounds, 0.12% hits; AID 624414; in the data active = activation above about 50%; inconclusive = about 30% to 50%; inactive = below about 30%; note: 0% is about no effect; the text of the record puts the active cut at 80%
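Tetracycline-induced TRPML1-DL cells are seeded and incubated overnight before loading with a no-wash Ca2+ dye and quencher. Agonist activity is taken from the 110 s fluorescence read following compound pin-transfer on an FDSS, before EC80 54-4 challenge.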
D2 agonist = human D2 receptor agonism in beta-arrestin assay; P14416; DiscoveRx PathHunter D2 beta-arrestin, luminescence, 90 min; 100% = 57 uM dopamine signal; activation, % (test concentration not listed); 360,000 compounds, 0.084% hits; AID 624465; in the data active = activation above about 40%; inconclusive = about 15% to 40%; inactive = below about 15%; note: compound concentration not given in the record; the text of the record calls up to 30% inactive
Target sequence (P14416 whole entry, looked up): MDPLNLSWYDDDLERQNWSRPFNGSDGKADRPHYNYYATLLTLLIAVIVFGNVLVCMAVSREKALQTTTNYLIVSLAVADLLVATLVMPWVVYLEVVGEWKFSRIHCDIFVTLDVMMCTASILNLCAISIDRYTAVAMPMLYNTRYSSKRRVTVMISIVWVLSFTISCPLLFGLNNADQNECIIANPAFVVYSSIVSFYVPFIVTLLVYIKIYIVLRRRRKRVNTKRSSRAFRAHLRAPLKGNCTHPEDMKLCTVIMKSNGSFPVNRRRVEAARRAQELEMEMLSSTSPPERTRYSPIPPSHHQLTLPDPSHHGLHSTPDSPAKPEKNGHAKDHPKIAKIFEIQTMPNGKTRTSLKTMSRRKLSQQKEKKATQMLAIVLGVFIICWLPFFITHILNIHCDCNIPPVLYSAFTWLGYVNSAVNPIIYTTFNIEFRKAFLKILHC
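Agonist mode: compounds alone added to overnight-plated D2 PathHunter cells for 90 min at 37 C, with 57 uM final dopamine (EC100) defining full response. Beta-arrestin recruitment detected by chemiluminescent reagent, read after 1 h at ambient temperature.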
D2 PAM = potentiates the human D2 dopamine receptor allosterically; P14416; DiscoveRx D2 beta-arrestin cells, luminescence, 90 min; 100% = 57 uM dopamine signal; potentiation, % (no concentration beside the values); 360,000 compounds, 0.23% hits; active = potentiation of 50% or more; inconclusive = 30% to 50%; inactive = 30% or less;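 note: compound concentration not given in the record; tested on top of an EC20 dose of dopamine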
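D2 cells co-treated with compound plus 50 nM dopamine (EC20) for 90 min at 37 deg C to detect potentiation. Beta-arrestin recruitment was read as enzyme-fragment luminescence after 1 h at ambient temperature. Full response was set by 57 uM dopamine.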
The depositor's hits bear a star; [ ] = remark or other dose.

Preview, three compounds:
How did CC(=O)c1ccc(N2CCN(S(=O)(=O)c3cc(-c4noc(C)n4)ccc3C)CC2)cc1 do in these assays?
TRPML1 blocker: -0.6; PINK1 expr mod: 0.6%; TRPML1 ag: 0.7

Results for Cc1nnc(SCc2nnc(-c3cccs3)o2)n1Cc1ccccc1 ?
Six1-Eya2 inh: -2.1; TRPML1 blocker: -6.2; PINK1 expr mod: 0.1%; TRPML1 ag: 0.0; D2 agonist: -1.1; D2 PAM: -6.4

Results for CCCn1c(NC(=O)c2cccc(C)c2C)nc2ccccc21 ?
Six1-Eya2 inh: -10.3; TRPML1 blocker: 13.4; PINK1 expr mod: 13.6%; TRPML1 ag: 0.9; D2 agonist: -0.9; D2 PAM: 5.2

The whole of this part (from the top)
How did CC(=O)c1ccc(N2CCN(S(=O)(=O)c3cc(-c4noc(C)n4)ccc3C)CC2)cc1 do in these assays?
TRPML1 blocker: -0.6; PINK1 expr mod: 0.6%; TRPML1 ag: 0.7

Results for Cc1nnc(SCc2nnc(-c3cccs3)o2)n1Cc1ccccc1 ?
Six1-Eya2 inh: -2.1; TRPML1 blocker: -6.2; PINK1 expr mod: 0.1%; TRPML1 ag: 0.0; D2 agonist: -1.1; D2 PAM: -6.4

Results for CCCn1c(NC(=O)c2cccc(C)c2C)nc2ccccc21 ?
Six1-Eya2 inh: -10.3; TRPML1 blocker: 13.4; PINK1 expr mod: 13.6%; TRPML1 ag: 0.9; D2 agonist: -0.9; D2 PAM: 5.2

What do the screens show for `O=C(N/N=C/c1cccnc1)c1cccc(Cl)c1`?
Six1-Eya2 inh: -6.7; TRPML1 blocker: -20.9; PINK1 expr mod: -0.1%; TRPML1 ag: -0.5; D2 agonist: 1.4; D2 PAM: -8.7

Results for c1ccc(Nc2nc(-c3ccncc3)nc3ccccc23)cc1 ?
Six1-Eya2 inh: -0.5; TRPML1 blocker: -3.0; PINK1 expr mod: 13.0%; TRPML1 ag: 0.8; D2 agonist: -10.0; D2 PAM: -21.8

How did Cc1cc2[nH]ncc2cc1NC(=S)NC(=O)c1ccccc1 do in these assays?
Six1-Eya2 inh: -7.7; TRPML1 blocker: -6.3; PINK1 expr mod: -0.3%; TRPML1 ag: 4.1; D2 agonist: 0.9; D2 PAM: 6.7

What do the screens show for `COC(=O)CSc1nnc(CNC(=O)c2cccs2)n1-c1cc(OC)ccc1OC`?
Six1-Eya2 inh: 2.0; TRPML1 blocker: -2.4; PINK1 expr mod: -1.7%[38.3 µM]; TRPML1 ag: 0.6; D2 agonist: -4.0; D2 PAM: -5.6

Results for COc1ccc(C2=NS(=O)(=O)N(C)C(C(=O)N3CCC(C(N)=O)CC3)=C2)cc1 ?
Six1-Eya2 inh: 5.0; TRPML1 blocker: -1.8; PINK1 expr mod: -0.2%; TRPML1 ag: 0.3; D2 agonist: 4.0; D2 PAM: -0.6

What do the screens show for `NC(=O)C1CCN(CCC(=O)Nc2ccc(F)c(F)c2)CC1`?
Six1-Eya2 inh: 1.3; TRPML1 blocker: -0.1; PINK1 expr mod: 2.3%; TRPML1 ag: -0.1; D2 agonist: -2.5; D2 PAM: -5.8

Results for CC(=O)c1cccc(-c2ccc(CN3C(CC(C)C)C(=O)N(Cc4cn(CC5CCCCC5)nn4)CCS3(=O)=O)cc2)c1 (stereo unspecified) ?
Six1-Eya2 inh: -7.8; TRPML1 blocker: -2.3; PINK1 expr mod: 5.7%; TRPML1 ag: 1.4; D2 agonist: -0.1; D2 PAM: -1.6

Results for O=C1CC(N2CCN(c3ccccc3)CC2)C(=O)N1CCc1ccccc1 (stereo unspecified) ?
Six1-Eya2 inh: -4.9; TRPML1 blocker: -15.8; PINK1 expr mod: 0.9%[38.3 µM]; TRPML1 ag: -0.3; D2 agonist: 1.0; D2 PAM: -9.9

Results for CC(C)NC(=O)Nc1ccc2c(c1)C(=O)N([C@H](C)CO)C[C@H](C)[C@@H](CN(C)Cc1ccc3c(c1)OCO3)OCCCC[C@@H](C)O2 ?
Six1-Eya2 inh: -3.4; TRPML1 blocker: 1.9; PINK1 expr mod: 2.7%; TRPML1 ag: 2.3; D2 agonist: -2.2; D2 PAM: 12.8

What do the screens show for `COc1ccc(Nc2nnc(SCC(=O)NC3CC3)s2)cc1`?
Six1-Eya2 inh: -5.5; TRPML1 blocker: 36.8; PINK1 expr mod: -0.2%; TRPML1 ag: -1.0; D2 agonist: -3.4; D2 PAM: -5.9

What do the screens show for `COc1ccc(CC(=O)N2N=C(c3ccncc3)CC2(O)C(F)(F)F)cc1` (stereo unspecified)?
Six1-Eya2 inh: 0.8; TRPML1 blocker: -8.2; PINK1 expr mod: 10.4%; TRPML1 ag: 1.0; D2 agonist: 1.1; D2 PAM: -12.1

What do the screens show for `Oc1c(CN2CCOCC2)cc(-c2ccccc2)cc1CN1CCOCC1`?
Six1-Eya2 inh: -7.2; TRPML1 blocker: -6.6; PINK1 expr mod: -1.1%; TRPML1 ag: 0.0; D2 agonist: -1.5; D2 PAM: -45.4

Results for Cc1ccccc1N1Cc2ccccc2C1=O ?
Six1-Eya2 inh: 4.6; PINK1 expr mod: 0.4%; D2 agonist: -4.2

Results for CCOC(=O)c1ccc(N=c2ssnc2Cl)cc1 ?
Six1-Eya2 inh: -0.3; TRPML1 blocker: 27.2; PINK1 expr mod: 5.5%; TRPML1 ag: -0.5; D2 agonist: -4.4; D2 PAM: -4.6

How did Cc1ccc2c(CSc3nncn3C)cc(=O)oc2c1C do in these assays?
Six1-Eya2 inh: 1.6; TRPML1 blocker: -3.2; PINK1 expr mod: 0.2%; TRPML1 ag: 1.2; D2 agonist: 3.7; D2 PAM: -19.3

What do the screens show for `COc1ccc2c(c1)oc(=O)c1ccccc12`?
Six1-Eya2 inh: -2.7; TRPML1 blocker: -0.8; PINK1 expr mod: 3.5%; TRPML1 ag: 0.4; D2 agonist: -0.3; D2 PAM: -2.5

What do the screens show for `CCn1c(=NC(=O)CSCC(=O)Nc2nccs2)sc2ccccc21`?
Six1-Eya2 inh: 0.0; TRPML1 blocker: 5.3; PINK1 expr mod: -1.8%; TRPML1 ag: -1.1; D2 agonist: -2.0; D2 PAM: -6.6

What do the screens show for `Cc1cc(=O)oc2cc(NC(=O)c3cccc(Br)c3)ccc12`?
Six1-Eya2 inh: 7.2; TRPML1 blocker: -0.8; PINK1 expr mod: 19.6%; TRPML1 ag: -0.2; D2 agonist: 2.6; D2 PAM: -6.5

What do the screens show for `COc1ccc(CNC(=O)[C@H](Cc2ccccc2)NC(=O)CC[C@H]2O[C@@H](n3ccc(=O)[nH]c3=O)[C@H](O)[C@@H]2O)cc1`?
Six1-Eya2 inh: -1.8; PINK1 expr mod: -0.8%; TRPML1 ag: -0.6; D2 agonist: -0.9; D2 PAM: 0.1

What do the screens show for `Cc1nn2cnnc2c(C)c1Cc1ccc(Cl)cc1`?
Six1-Eya2 inh: -4.4; TRPML1 blocker: -10.2; PINK1 expr mod: 3.0%; TRPML1 ag: 0.3; D2 agonist: 10.1; D2 PAM: -14.1

What do the screens show for `Cc1cc(C)c(C)c(S(=O)(=O)NCC(=O)NCC2CCCCC2)c1C`?
Six1-Eya2 inh: 0.3; TRPML1 blocker: -4.4; PINK1 expr mod: 4.1%; TRPML1 ag: -0.1; D2 agonist: -2.5; D2 PAM: -11.2

How did O=[N+]([O-])c1ccc(N2CCN(Cc3ccccc3)CC2)s1 do in these assays?
Six1-Eya2 inh: -2.0; TRPML1 blocker: 0.9; PINK1 expr mod: 4.9%; TRPML1 ag: -0.1; D2 agonist: -2.8; D2 PAM: -13.2

What do the screens show for `O=C(COC(=O)c1cccc([N+](=O)[O-])c1)NCc1ccc2c(c1)OCO2`?
Six1-Eya2 inh: 1.6; TRPML1 blocker: -5.8; PINK1 expr mod: -1.0%; TRPML1 ag: 4.7; D2 agonist: -0.6; D2 PAM: -0.2

How did Cn1ncc2c(NNC(=O)C3CCCCC3)ncnc21 do in these assays?
Six1-Eya2 inh: -10.4; TRPML1 blocker: 10.2; PINK1 expr mod: -0.9%; TRPML1 ag: 0.2; D2 agonist: -5.9; D2 PAM: -1.7

What do the screens show for `Cc1ccc(S(=O)(=O)NC(CCC(N)=O)C(=O)NCc2ccc3c(c2)OCO3)c(C)c1` (stereo unspecified)?
Six1-Eya2 inh: 2.7; TRPML1 blocker: -6.7; PINK1 expr mod: -1.5%; TRPML1 ag: 0.1; D2 agonist: -0.6; D2 PAM: -12.3

How did O=C(Nc1nc2ccccc2s1)c1cccc(S(=O)(=O)N2CCc3ccccc32)c1 do in these assays?
Six1-Eya2 inh: 11.3; TRPML1 blocker: 1.1; PINK1 expr mod: 3.1%; TRPML1 ag: -0.2; D2 agonist: -1.9; D2 PAM: -0.9

Results for NC(=O)c1c(NC(=O)CSc2nnc(-c3ccccc3)n2CC2CCCO2)sc2c1CCC2 (stereo unspecified) ?
Six1-Eya2 inh: -7.5; TRPML1 blocker: -4.7; PINK1 expr mod: -3.3%[38.3 µM]; TRPML1 ag: -0.3; D2 agonist: -0.9; D2 PAM: -5.9

How did CCOC(=O)c1cccc(NC(=O)c2cc3cc4cc(OC)ccc4nc3s2)c1 do in these assays?
TRPML1 blocker: 42.4; PINK1 expr mod: 3.4%; TRPML1 ag: -0.2

Results for O=C(NCCc1ccccc1)c1cccc(NC(=O)C2CC2)c1 ?
Six1-Eya2 inh: 1.0; TRPML1 blocker: 19.1; PINK1 expr mod: -1.3%; TRPML1 ag: 0.7; D2 agonist: 0.0; D2 PAM: -7.1

Results for NCCCC[C@H]1NC(=O)[C@H](CCC(=O)O)NC(=O)c2cc([N+](=O)[O-])cc(I)c2OCC[C@@H](C(N)=O)NC1=O ?
Six1-Eya2 inh: inconclusive; TRPML1 blocker: 14.7; PINK1 expr mod: -0.3%; TRPML1 ag: -0.8; D2 agonist: -5.2; D2 PAM: -15.6

What do the screens show for `Cc1ccc2c(c1)N(CC(=O)NCC(C)c1ccccc1)C(=O)c1cccnc1O2` (stereo unspecified)?
Six1-Eya2 inh: 3.0; TRPML1 blocker: 12.3; PINK1 expr mod: -0.2%; TRPML1 ag: 1.6; D2 agonist: -1.8; D2 PAM: -4.8

What do the screens show for `O=C(CCN1CCCO1)N1CCCC(N2CCN(c3cccc(C(F)(F)F)c3)CC2)C1` (stereo unspecified)?
Six1-Eya2 inh: 6.3; TRPML1 blocker: -14.0; PINK1 expr mod: -3.0%; TRPML1 ag: 0.9; D2 agonist: -2.9; D2 PAM: -29.7

How did CC(C)CC1NC(=O)c2cc3ccccc3cc2-n2c1nc1ccc(Cl)cc1c2=O (stereo unspecified) do in these assays?
Six1-Eya2 inh: 6.0; TRPML1 blocker: -5.7; PINK1 expr mod: 0.2%; TRPML1 ag: -0.5; D2 agonist: -5.3; D2 PAM: 1.5

What do the screens show for `C[C@H](NC(=O)c1cc2cc(Cl)ccc2n1C)C(=O)N[C@@H](Cc1ccccc1)C(=O)O`?
Six1-Eya2 inh: -5.2; TRPML1 blocker: -1.1; PINK1 expr mod: -1.1%; TRPML1 ag: 0.4; D2 agonist: 7.1; D2 PAM: -6.6
